# Marburg entry inh: blocks Marburg virus binding to or entry into cells | actives 1.8% (n = 300,000) | Potency, µM (top dose mostly 37.8 µM), for the others: at the highest dose activity change, negative = inhibition, hits mostly inhibitors | Marburg virus pseudotyped entry inhibition, cell reporter; control for the full effect not named in the record; about a third of the inactives were read at about 46 µM; active = well fitted inhibition curve with a large enough effect; inconclusive = small, poorly fitted or top-dose-only effect, or effect the other way; inactive = flat fitted curve, though single readings scatter; tested in HEK293 cells; about a fifth of its hits are not listed in these tables; also: % is scaled to controls: 0 for no effect and ±100 for the full control effect; luciferase read-out
# NS1 function inh: inhibitors of influenza NS1 protein function | S. cerevisiae slowed by influenza A NS1, growth recovery by OD600 | actives 0.4% (n = 270,000) | Potency, µM (highest dose often 46.1 µM), for inactives: at the top dose activity, positive = more growth | AID 2326; also: actives are rising curves; nearly all actives have a fitted effect of over 50% in size
#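 Compounds were scored for reversing the slow growth caused by influenza A NS1 in S. cerevisiae, measured by optical density at 600 nm. Assay medium contained 2% galactose at pH 6.0; NS1-free yeast of the same strain were the positive control.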
# Cruzain Triton: inhibitors of Trypanosoma cruzi cruzain with detergent | P25779 | purified cruzain, Z-FR-AMC fluorescence, 0.01% Triton | Potency, µM, without a hit: max response, negative = inhibition, actives largely listed as inhibitors | actives 0.43% (n = 200,000) | AID 1478; active = well fitted curve in the direction sought with a large enough effect; inconclusive = small, poorly fitted or top-dose-only effect, or another doubt; inactive = no such curve, though single readings can be large; an effect the other way counts as inactive or inconclusive;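 also: plate controls were neutral wells for no effect and buffer without enzyme for full effect; nearly all actives have a fitted effect of over 40% in size; top concentration of the series not given in the record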
# Target sequence (P25779 123-467 limits assumed): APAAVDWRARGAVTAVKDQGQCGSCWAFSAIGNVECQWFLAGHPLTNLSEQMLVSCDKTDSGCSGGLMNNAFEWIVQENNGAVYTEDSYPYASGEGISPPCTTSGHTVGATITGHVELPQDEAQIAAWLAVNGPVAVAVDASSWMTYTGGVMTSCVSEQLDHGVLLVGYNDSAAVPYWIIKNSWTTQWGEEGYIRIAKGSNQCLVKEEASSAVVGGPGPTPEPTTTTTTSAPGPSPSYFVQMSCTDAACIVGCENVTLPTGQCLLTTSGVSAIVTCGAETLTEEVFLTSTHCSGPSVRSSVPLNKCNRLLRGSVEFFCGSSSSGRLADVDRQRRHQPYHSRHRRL
#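 Cruzain (1.5 nM) preincubated 15 min at RT with compound in 100 mM sodium acetate pH 5.5, 5 mM DTT, 0.01% Triton X-100. Reaction started with 2 uM Z-FR-AMC; AMC fluorescence (ex 360/em 450 nm) change over 60 s gave rate.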
# RE007 growth inh: less growth of the S. pombe RE007 Vpr strain; S. pombe RE007 Vpr strain, BacTiter-Glo ATP luminescence, 24 h; control for the full effect not named in the record; Potency, µM (titrated, usually from 92.2 µM), inactives show at the highest dose activity change, negative = less growth; actives 0.21% (n = 360,000); AID 651644; active = well fitted falling curve with a large enough effect; inconclusive = small, poorly fitted or top-dose-only effect; inactive = no such curve, though single readings can be large or run the other way;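 also: % is scaled to controls: 0 for no effect and ±100 for the full control effect; nearly all actives have a fitted effect of over 50% in size; the assay follows cell death caused by Vpr and the record does not say whether a fall means rescue or toxicity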
#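 Fission yeast strain RE007, carrying one chromosomally integrated HIV-1 vpr copy, was seeded at OD 0.01 in PMG+AL medium with 23 nL pinned compound. After 24 h at 30 °C and 99% humidity, viability was read by BacTiter-Glo luminescence.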
# Cruzain noTriton: inhibitors of Trypanosoma cruzi cruzain without detergent; purified cruzain, Z-FR-AMC fluorescence, no detergent; AID 1476; P25779; actives 2.3% (n = 200,000); Potency, µM, for the others: max response, negative = inhibition, actives largely listed as inhibitors; active = well fitted curve in the direction sought with a large enough effect; inconclusive = small, poorly fitted or top-dose-only effect, or another doubt; inactive = no such curve, though single readings can be large; an effect the other way counts as inactive or inconclusive;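 also: plate controls were enzyme without inhibitor for no effect and buffer without enzyme for full effect; nearly all actives have a fitted effect of over 40% in size; top concentration of the series not given in the record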
#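 Purified cruzain at 1.5 nM, pre-incubated 15 min with compound at room temperature in 100 mM sodium acetate pH 5.5, 5 mM DTT, 0.00005% Triton X-100. Reaction started with 2 uM Z-FR-AMC; AMC fluorescence increase over 60 s gives rate.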
# SARS PLP yeast: inhibitors of SARS-CoV papain-like protease in yeast; S. cerevisiae expressing SARS-CoV PLpro, growth rescue; control for the full effect not named in the record; Potency, µM (doses to about 32.9 µM), for the others: at the top dose activity, positive = growth rescue; actives 0.19% (n = 330,000); AID 485353; also: 0% is about no effect; nearly all actives have a fitted effect of over 55% in size; growth read by luminescence after 48 h
# 2A StopGo: FMDV 2A StopGo reporter, luciferase signal | human cells with a luciferase reporter of 2A StopGo recoding; control for the full effect not named in the record | Potency, µM (titrated, usually from 57.9 µM), for inactives: top-dose signal change, negative = less light | actives 1.2% (n = 410,000) | AID 1159524; active = well fitted falling curve with a large enough effect; inconclusive = small, poorly fitted or top-dose-only effect; inactive = no such curve, though single readings can be large or run the other way; tested in HEK293T cells; also: % is scaled to controls: 0 for no effect and ±100 for the full control effect; nearly all actives have a fitted effect of over 45% in size; luciferase light after 4 h
# LASV entry inh: blocks Lassa virus binding to or entry into cells; Potency, µM (highest dose often 37.9 µM), inactives show at the top dose activity change, negative = inhibition, hits mostly inhibitors; actives 1.2% (n = 300,000); Lassa virus pseudotype entry inhibition, cell reporter; control for the full effect not named in the record; active means well fitted inhibition curve with a large enough effect; inconclusive means small, poorly fitted or top-dose-only effect, or effect the other way; inactive means flat fitted curve, though single readings scatter; tested in HEK293 cells; also: % is scaled to controls: 0 for no effect and ±100 for the full control effect; nearly all actives have a fitted effect of over 50% in size; luciferase read-out
# Starred values were filed as active, the others as inactive; ? = inconclusive; nt = no result given; [ ] = remark or other dose. Unless noted, calls follow the shape of the dose curve; as a rule, active means well fitted rising curve with a large enough effect; inconclusive means small, poorly fitted or top-dose-only effect; inactive means no such curve, though single readings can be large or run the other way. Potency is read from the fitted curve at half-maximal effect. Rows are unselected; 4.7% or so of the library scored in one or more.
Compound,Marburg entry inh,NS1 function inh,Cruzain Triton,RE007 growth inh,Cruzain noTriton,SARS PLP yeast,2A StopGo,LASV entry inh
Cc1ccc(S(=O)(=O)Nc2cc3c(C(=O)O)c(C)oc3c3ccccc23)c(C)c1,3%[46.1 µM],20%,nt,-1%,nt,1%,1%,-22%
CN(C)S(=O)(=O)N1CCC(Oc2ccc(C(=O)NC3CCOC(C)(C)C3)cc2)CC1 (centres undefined),nt,-3%,nt,3%,nt,3%,-11%,nt
COC(=O)c1cc2sc(Cl)cc2n1Cc1cc(C)ccc1C,-7%[46.1 µM],nt,-2.8%,nt,-9%,nt,-24%,nt
COCc1nc2ccccc2n1CCCOc1ccccc1,-11%,-22%,-3.7%,2%,-2%,-11%,-27%,3%
O=C1c2[nH]nc(-c3ccccc3O)c2C(c2cccc(OCc3ccccc3)c2)N1CCO (centres undefined),?,nt,1.0%,nt,?,nt,-10%,nt
COc1ccc2c(c1)cc(C(=O)N[C@@H](CCSC)C(=O)N1CCC(C(=O)O)CC1)n2C,19%[46.1 µM],5%,nt,7%,nt,6%,-2%,1%[46.1 µM]
O=C(NC1CCCC1)C(c1ccccc1)N(Cc1ccco1)C(=O)Cc1cccs1 (centres undefined),-23%,8%,-3.4%,0%,-5%,-23%,-9%,-8%
N#C/C(=C\c1c(N2CCCCCC2)nc2ccccn2c1=O)C(=O)NCc1ccco1,7%[46.1 µM],-3%,nt,-4%,nt,-1%,-6%,7%
COc1cc2c(cc1OC)CN(C(=O)c1ccc(N3CCCC3)c([N+](=O)[O-])c1)CC2,?,nt,nt,6%,nt,-5%,-25%,-6%
COc1cc(NS(=O)(=O)c2ccc(N/C=C(\C=O)c3nc4cc(Cl)ccc4o3)cc2)nc(OC)n1,-14%,3%,-5.4%,2%,?,0%,-18%,9%
CCOC(=O)c1cnn(-c2nc(-c3cccc(F)c3)cs2)c1C(F)(F)F,?,6%,-9.9%,-4%,-15%,-13%,25%,-12%
Cc1ccc(OCC(O)Cn2c(N3CCCCC3)nc3c2c(=O)[nH]c(=O)n3C)cc1C (centres undefined),nt,10%,nt,4%,nt,0%,-8%,nt
CCn1c(=O)c(-c2ccccc2)c(O)c2ccccc21,-1%,-38%,-2.2%,-21%,16%,-3%,-13%,1%
COc1cc(NC(=O)c2cccs2)c(OC)cc1NC(=O)c1cccs1,?,nt,nt,-8%,nt,nt,-16%,-10%
O=C(CCNC(=O)c1ccccc1Cl)OCC(=O)c1ccccc1,nt,-2%,nt,2%,nt,1%,-16%,nt
O=C(NC1CCCCC1)N1CCN(Cc2nc3ccccc3c(=O)[nH]2)CC1,?,1%,nt,-4%,nt,nt,2%,16%
CCOc1ccc(N2C(=O)CC(SCCN)C2=O)cc1 (centres undefined),-5%,-4%,4.7%,20µM*,-14%,-9%,13%,12%
CCCc1nc2sc3c(c2c(=O)n1NC(=O)CCCl)CCCC3,?,-19%,-6.6%,-22%,-8%,-1%,?,?
COc1cc(/C=C/C(=O)O)cc(S(=O)(=O)NCCCO)c1OC,28%,-3%,-3.1%,-5%,-1%,0%,0%,1%
CCOC(=O)c1ccc(NC(=O)CS(=O)(=O)c2cn(CC)c3ccccc23)cc1,8.2µM*,-56%,-0.3%,11%,3%,-2%,-5%,?
COC(=O)c1sc(NC(=O)c2cccc([N+](=O)[O-])c2)c(C(N)=O)c1C,?,16%,-0.2%,-10%,10%,-10%,-4%,?
COC(=O)c1cn(C(=O)c2ccc(C)c(C)c2)c2ccccc12,3%,3%,-7.4%,-13%,-1%,-7%,-17%,?
Cc1cc(F)ccc1N1CCC(N2CCN(C)C(CCO)C2)CC1 (centres undefined),-6%,12%,nt,-8%,nt,6%,-5%,28%
COC(=O)Nc1ccc(S(=O)(=O)N2CCCC(C(=O)N3CCCCC3)C2)cc1 (centres undefined),4%[46.1 µM],nt,nt,-7%,nt,-6%,0%,?
Cc1cc(C(=O)NCCC2=CCCCC2)ccc1[N+](=O)[O-],0%[46.1 µM],-34%,nt,2%,nt,-3%,20%,?
Cc1cccc(CC(=O)OCn2nnc3ccccc3c2=O)c1,nt,-9%,-12%,-14%,14%,-13%,-17%,nt
OCCN(CC#CC(O)(c1ccccc1)C1CCCCC1)CCO (centres undefined),nt,21%,nt,4%,nt,11%,-1%,nt
Nc1nc2c(s1)CCCCCCCCCC2,?,-13%,nt,-6%,nt,-1%,-17%,22%[46.1 µM]
Cc1cc(C)c(NC(=O)Nc2ccc3c(c2)OCO3)c(C)c1,8%[46.1 µM],12%,nt,-7%,nt,9%,21%,8%[46.1 µM]
CCCCNS(=O)(=O)c1ccc2nc(SCC(=O)c3ccc(C#N)cc3)[nH]c2c1,-3%,-2%,-3.3%,-19%,-15%,2%,19%,-8%
O=C(CN1CCN(S(=O)(=O)c2ccc(Cl)cc2)CC1)N1CCCC1,?,nt,nt,-11%,nt,-3%,-11%,23%
Cc1cc(C(C)(C)C)ccc1OCCN(C)C,-2%,5%,-4.2%,-5%,-4%,0%,0%,0%
CCOC(=O)c1ccc(NC(=O)c2nc[nH]c2C(=O)NC)cc1,nt,-4%,nt,9%,nt,1%,-7%,nt
O=[N+]([O-])c1ccc(C[n+]2cccc3ccc4cccnc4c32)cc1,?,6%,nt,?,nt,0%,-17%,-24%
Cc1cc(-c2cc(C(=O)NCc3ccccc3)on2)nc(NC2CCCC2)n1,nt,10%,nt,-5%,nt,0%,10%,nt
Cn1nc(-c2ccc(C(=O)Nc3cccc(Cl)c3)cc2)c2ccccc2c1=O,-6%,10%,0.7%,-7%,10%,0%,6%,?
COc1ccccc1CCNC(=O)c1cc(-c2ccccn2)nc2ccccc12,-32%,nt,nt,1%,nt,1%,-23%,-8%
CCOc1ccc(NC(=O)Nc2cc(C(C)C)c(O)cc2C)cc1,?,6%,nt,-1%,nt,0%,-19%,-17%
CCOCCCNS(=O)(=O)c1ccc(NC(=O)N2c3ccccc3Sc3ccccc32)cc1,-2%,7%,-6.4%,23%,?,-7%,-6%,nt
c1csc(C(c2nnnn2C2CCCCC2)N2CCN(c3nc4ccccc4s3)CC2)c1 (centres undefined),21%,6%,-2.1%,23%,?,-25%,16%,13%
COc1ccc(NC(=O)COc2ccc(-n3cnnn3)cc2)cc1OC,2%[46.1 µM],nt,nt,-2%,nt,-2%,-25%,4%
O=C(NCCc1ccccc1)C(=O)NCC1OCCN1S(=O)(=O)c1ccc(F)cc1 (centres undefined),nt,4%,nt,0%,nt,3%,-12%,nt
COc1ccc2nc(NC(=O)CN(C)S(=O)(=O)c3cccs3)sc2c1,1%,-10%,-12%,-13%,1%,-6%,11%,-11%
CCN(CC)S(=O)(=O)c1cccc(NC(=O)C(=O)c2c(-c3ccccc3)cc3ccccn23)c1,?,0%,-0.5%,21%,-27%,-12%,-8%,-20%
CCCCOc1ccc(CC2CCC(=O)NC2=O)cc1 (centres undefined),8%[46.1 µM],-4%,nt,25%,nt,0%,2%,8%
Cc1cc(C)n(-c2nc(C)c(C)c(=O)n2CC(=O)Nc2ccc(OC(F)(F)F)cc2)n1,nt,nt,-2.3%,nt,-5%,nt,-23%,11%[46.1 µM]
CCCN=Cc1ccc(O)cc1,?,-3%,nt,-13%,nt,0%,3%,-2%
Cc1ccc(C(=O)N2CCN(CCNC(=O)C(=O)Nc3ccc(Cl)cc3)CC2)cc1,-29%[46.1 µM],2%,nt,-8%,nt,-8%,?,-2%[46.1 µM]
O=C(O)c1ccc2c(=O)n3c(nc2c1)/C(=C/c1ccccc1OC(F)F)CC3,nt,3%,nt,5%,nt,5%,-5%,nt
CC(=O)c1c(C)[nH]c(C(=O)NCc2ccc(F)cc2)c1C,?,nt,nt,-2%,nt,2%,14%,-2%
Cc1ccc(S(=O)(=O)N2CCN(C(=O)COC(=O)CSc3cc(C)ccc3C)CC2)c(C)c1,4%,nt,nt,-1%,nt,-2%,-12%,0%
O=C1NC(NS(=O)(=O)c2ccccc2)(C(F)(F)F)C(=O)N1Cc1cccnc1 (centres undefined),-1%,6%,0.4%,9%,-1%,-2%,-5%,0%
NC(=O)[C@H](Cc1cc2ccccc2s1)NC(=O)[C@@H]1CC2(CC(c3cccc(NC(=O)[C@@H]4CCC(=O)N4)c3)=NO2)CN1C(=O)/C=C/c1c(F)cccc1Cl (some centres undefined),nt,?,-12%,0%,?,-7%,-13%,nt
O=C1NC(=O)C(CCc2ccncc2)(Cc2ccc3c(c2)OCO3)C(=O)N1CCc1ccccc1 (centres undefined),0%,-26%,-7.5%,13%[3.69 µM],7%,-26%,23%,-12%
Cc1ccc(CCN2CC(C(=O)NC(C)C)CC2=O)cc1 (centres undefined),28%[46.1 µM],7%,nt,3%,nt,1%,-3%,-1%[46.1 µM]
Cc1cccc(C)c1NC(=S)N1CC(C)OC(C)C1 (centres undefined),8%[46.1 µM],0%,nt,-1%,nt,0%,-14%,22%[46.1 µM]
N#Cc1ccc(CN(c2ccncc2)S(=O)(=O)c2ccccc2)cc1,-1%[46.1 µM],?,nt,5%,nt,?,11%,7%
Cc1ccc(NC(=O)c2cc(S(=O)(=O)N3CCCCCC3)ccc2F)cc1F,nt,nt,-0.8%,nt,19%,nt,0%,7%[46.1 µM]
Cc1ccc2c(cnn2C(=O)CCC(=O)NCc2ccccc2Cl)c1,nt,-9%,nt,-4%,nt,-2%,-1%,nt
O=C1CC(c2ccco2)CC(O)=C1C=Nc1cc(Cl)ccc1O (centres undefined),12%,2%,-15%,-4%,?,-10%,9%,-2%
O=C(NC1CC1)c1ccc(CS(=O)(=O)c2c(Cl)cccc2Cl)o1,nt,4.5µM*,0.3%,-2%,3%,5%,11%,nt
O=C(CSc1nnc(-c2c[nH]c3ccccc23)o1)N(Cc1ccccc1)c1ccc(F)cc1,18µM*,-53%,-5.5%,2%,13µM*,-26%,nt,?

# Assay outcomes from PubChem BioAssay.
